Assay outcomes: PubChem BioAssay, Johns Hopkins Ion Channel Center
KCNQ2 block: KCNQ2 channel blockers in CHO-K1 cells – cell-based, FluxOR thallium flux, B-score, primary screen (AID 2156); O88943; 20 min; hits give low values; only compounds with negative scores are shown here; some inactives read as strong as hits; B-score at 10 µM; 1.1% of 310,000 active;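 active = fluorescence ratio B-score at most minus 3 library SDs, with starting brightness B-score within 2 library SDs, cut at about -5.5 in these data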
Target sequence (O88943 whole entry, looked up): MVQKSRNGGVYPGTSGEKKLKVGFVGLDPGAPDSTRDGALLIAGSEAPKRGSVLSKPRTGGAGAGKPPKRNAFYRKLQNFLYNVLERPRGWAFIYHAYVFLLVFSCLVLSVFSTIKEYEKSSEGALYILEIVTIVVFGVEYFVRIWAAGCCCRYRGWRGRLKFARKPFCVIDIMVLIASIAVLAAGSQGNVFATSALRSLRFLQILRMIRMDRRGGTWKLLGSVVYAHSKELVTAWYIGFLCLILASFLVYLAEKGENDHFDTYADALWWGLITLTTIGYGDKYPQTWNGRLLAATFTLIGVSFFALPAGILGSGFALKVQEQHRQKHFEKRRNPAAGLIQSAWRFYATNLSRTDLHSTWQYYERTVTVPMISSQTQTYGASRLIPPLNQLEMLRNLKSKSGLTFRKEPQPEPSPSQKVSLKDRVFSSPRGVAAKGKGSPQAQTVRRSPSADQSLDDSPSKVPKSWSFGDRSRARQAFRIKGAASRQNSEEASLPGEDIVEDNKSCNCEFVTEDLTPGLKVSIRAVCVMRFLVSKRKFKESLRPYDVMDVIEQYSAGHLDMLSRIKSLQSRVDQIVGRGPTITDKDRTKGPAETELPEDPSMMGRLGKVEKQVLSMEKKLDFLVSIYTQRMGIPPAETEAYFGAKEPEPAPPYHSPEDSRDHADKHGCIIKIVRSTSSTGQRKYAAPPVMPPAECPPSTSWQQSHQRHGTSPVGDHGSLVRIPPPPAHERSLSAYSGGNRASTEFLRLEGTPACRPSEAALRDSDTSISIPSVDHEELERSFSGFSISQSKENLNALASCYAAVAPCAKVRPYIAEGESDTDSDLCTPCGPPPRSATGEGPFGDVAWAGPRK
KCNQ2 block baseline: second read-out of KCNQ2 block, no call of its own (marks repeat the call); B-score; measured here: initial fluorescence intensity artifact check;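 brightness before thallium and not channel activity; 0 = typical well and far values either way flag optical interference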
Active calls of the source: *; i = inactive.

SMILES	KCNQ2 block	KCNQ2 block baseline
O=C(CN1C(=O)NC2(CCCc3ccccc32)C1=O)Nc1cccc(S(=O)(=O)N2CCCCC2)c1 (stereo not given)	i	0.43
CCOC(=O)N/N=C\c1ccc([N+](=O)[O-])s1	i	-0.64
CCN(CC)CCNC(=O)c1[nH]c2ccc(OCc3ccccc3)cc2c1C	i	0.25
O/C(=C\c1nc2ccccc2nc1/C=C(\O)c1ccccc1)c1ccccc1	i	0.02
CCC(C(=O)NC(C)CCc1ccccc1)n1nc(C)n2c(cc3occc32)c1=O (stereo not given)	i	2.9
Cc1cccc(N2CCN(C(=O)c3ccc4nc(-c5ccco5)c(-c5ccco5)nc4c3)CC2C)c1 (stereo not given)	i	-2.5
COc1ccc(S(=O)(=O)N2CCOC23CCN(C(=O)c2ccc(Cl)cc2Cl)CC3)cc1	i	0.01
C=CCn1c2ccccc2c2nnc(SCC(=O)Nc3cc(C)on3)nc21	i	0.35
COc1ccc([N+](=O)[O-])cc1NC(=O)C(C)OC(=O)C1c2ccccc2Oc2ccccc21 (stereo not given)	i	-0.67
CC(=O)Nc1cccc(OCC(=O)NS(=O)(=O)c2ccc(C)cc2)c1	i	1.1
COc1ccc2c(c1)c(/C=C/c1cc[n+](C)cc1)cn2C	i	18
Cc1c(O)c(CN2CCCC2)cc2c3c(c(=O)oc12)CCC3	i	0.74
O=C(c1ccc(Cn2c(=S)[nH]c3cc4c(cc3c2=O)OCO4)cc1)N1CCN(c2ncccn2)CC1	i	0.09
Cc1ccc2ncnc(-c3ccccc3)c2c1	i	-1.2
CC(C)(C)CN1CCNC(=O)C1CC(=O)NC1Cc2ccccc2C1 (stereo not given)	i	0.91
Cc1ccc2ccccc2c1Cn1c(-n2ccnc2)nc2c1c(=O)n(C)c(=O)n2C	i	1.6
O=C(O)COc1ccc(-c2nccc(-c3ccccn3)n2)cc1	i	0.77
O=c1cc(N2CCCCC2)c(-c2ccccc2)nn1Cc1c(Cl)cccc1Cl	i	-2.2
N=C1C(c2nc3ccccc3s2)=C(O)CN1Cc1ccccc1	i	-0.81
O=C(NC1CCCCC1)N1CCN(c2ccccc2Cl)CC1	i	0.3
COc1ccc(-c2noc(C3CCCN(C(=O)c4cccs4)C3)n2)cc1 (stereo not given)	i	0.45
COc1ccc(NC(=O)[C@H](C)NC(N)=O)cc1S(=O)(=O)Nc1cc(C)ccc1Br	i	-0.37
O=C(c1ccccc1NS(=O)(=O)c1ccc(F)cc1)N1CCCCC1	i	-0.03
O=C(CN1C(=O)NC2(CCOc3ccccc32)C1=O)NCC(F)(F)F (stereo not given)	i	-1.4
CCC1CCCCN1CCCNC(=O)c1ccc(CS(=O)(=O)c2ccccc2C)o1 (stereo not given)	i	0.22

Three of the entries above in order of their number in KCNQ2 block baseline, rising.
SMILES	KCNQ2 block	KCNQ2 block baseline
COc1ccc(NC(=O)[C@H](C)NC(N)=O)cc1S(=O)(=O)Nc1cc(C)ccc1Br	i	-0.37
O=C(CN1C(=O)NC2(CCCc3ccccc32)C1=O)Nc1cccc(S(=O)(=O)N2CCCCC2)c1 (stereo not given)	i	0.43
CC(C)(C)CN1CCNC(=O)C1CC(=O)NC1Cc2ccccc2C1 (stereo not given)	i	0.91

Other entries:
SMILES	KCNQ2 block	KCNQ2 block baseline
CC(=O)c1cccc(S(=O)(=O)N2CCN(c3ccccc3F)CC2)c1	i	0.02
COc1ccc2c([N+](=O)[O-])c(N3CCCC3)[nH]c2c1	i	1.1
O=C(Nc1cccc2ccccc12)/C(=C/c1cccc([N+](=O)[O-])c1)NC(=O)c1cccs1	i	2.3
COc1ccc(OC)c(NC(=O)CSc2nc3ccccc3c(=O)n2CCNC(C)=O)c1	i	0.4
Cc1ccc(-c2nn(-c3ccccn3)c(=O)c3ccccc23)cc1C	i	-0.57
c1ccc(-n2nnnc2NC2CCCCC2)cc1	i	0.26
COc1ccc(NC(=O)CN2CCC(C(N)=O)CC2)cc1	i	-2.1
COc1cccc(SCC2CSc3nc4ccccc4c(=O)n32)c1 (stereo not given)	i	-2
CC1(C)Cc2cccc(OCC(=O)N3CCN(c4ccccc4)CC3)c2O1	i	0.46
CC1(C2CC2)NC(=O)N(CC(=O)Nc2ccccc2-c2ccccc2)C1=O (stereo not given)	i	0.44
CCOC(=O)c1cnc2ccc(OCC)cc2c1N1CCN(c2ccccc2OC)CC1	i	-1.7
Cc1ccc(NC(=O)Nc2ccccc2C(=O)NCc2ccccc2)cc1	i	0.7
CCC(=O)N1c2ccc(S(=O)(=O)NCCc3ccccc3)cc2CC1C (stereo not given)	i	2.6
c1ccc(-c2nnc(CSc3nc4ccccc4[nH]3)o2)cc1	i	-2.1
CCOc1cc(/C=N\n2nnnc2N)ccc1O	i	0.75
CCN(c1ccccc1)S(=O)(=O)c1ccc(Oc2ccc(-n3ccnc3)cc2)nc1	i	0.01
CN1CCN(C(=O)C23CC4CC(C2)CC(c2ccccc2)(C4)C3)CC1	i	0.32
O=C(CSC1=NS(=O)(=O)c2cc(Cl)ccc2N1)Nc1cccc(F)c1	i	0.04
COc1ccc(N(C)S(=O)(=O)c2ccc3c(c2)CCC(=O)N3)cc1	i	0.67
CC1=C(C(=O)Nc2ccccc2)C(c2ccc(C)o2)n2ncnc2N1 (stereo not given)	i	-0.99
CCCCCCSc1ccc([C@H]2N[C@@](Cc3ccccc3)(C(=O)OC)[C@H]3C(=O)N(C)C(=O)[C@@H]23)cc1OC	i	1.4
O=C(CN1C(=O)CCS(=O)(=O)c2ccccc21)Nc1ccccc1F	i	-1.4
C/C(=N\Nc1nc2ccc(Cl)cc2o1)c1ccccc1	i	-0.98
COc1cc(NC(=O)c2nccnc2N)cc(C(=O)Nc2cccc(C(F)(F)F)c2)c1	i	0.18
O=c1[nH]c(SCc2ccc(Cl)cc2)nc2ccsc12	i	0.42
SMILES	KCNQ2 block	KCNQ2 block baseline
COc1ccccc1N(CC(O)CN1CCOCC1)S(=O)(=O)c1ccccc1 (stereo not given)	i	-0.02
CC(=O)Nc1cccc(NC(=O)c2c(-c3ccccc3Cl)noc2C)c1	i	0.44
COc1ccc(N(CC(=O)Nc2ccccc2Cl)S(=O)(=O)c2ccc(C)cc2)cc1OC	i	-0.62
CCOC(=O)COc1coc(CN2CCN(c3ccc(F)cc3)CC2)cc1=O	i	0.07
COCCNC(=S)Nc1ccccn1	i	-1.4
Cc1c(Cl)cccc1NC(=O)Cn1nc(C)n2cccc2c1=O	i	-1.7
COc1ccc(C(=O)Nc2cnccn2)cc1[N+](=O)[O-]	i	0.03
CC(C)c1ccc(CNc2nnnn2C)cc1	i	-0.43
CCCS(=O)(=O)N1CCC(C(=O)NCCCN2CCC(Cc3ccccc3)CC2)CC1	i	-0.13
O=C(O)CCN1C(=O)c2ccc(NC(=O)CSCc3ccccc3)cc2C1=O	i	-0.59
O=C(CC(=O)Nc1ccccn1)Nc1ccccn1	i	1.2
COc1ccccc1CC(=O)NCCc1ccc(S(N)(=O)=O)cc1	i	1.6
CCC(=O)Nc1nnc(S(=O)(=O)N2CCc3ccccc32)s1	i	2.2
CN(Cc1cnccn1)C(=O)CC1C(=O)NCCN1Cc1ccc(F)cc1Cl (stereo not given)	i	0.01
CCOC(=O)c1c(S(=O)(=O)NCC(C)c2ccccc2)c(C)n(C)c1C (stereo not given)	i	1.2
COc1ccc(NC2CCCN(C(=O)Cn3ccc(C)n3)C2)cc1OC (stereo not given)	i	0.89
COc1cc2oc3ccccc3c2cc1N(CC(=O)N1CCCCC1)S(=O)(=O)c1ccc(C)cc1	i	-0.02
COc1ccccc1Oc1ncnc2sccc12	i	-0.68
COc1ccc(OCCCC(=O)Nc2cccc(C(C)=O)c2)cc1	i	-0.4
COc1ccc(CNC(=O)Nc2ccc([N+](=O)[O-])cc2)cc1	i	-0.03
CCOC(=O)COc1ccc(S(=O)(=O)NCc2ccco2)cc1	i	-0.04
Cc1noc(C)c1CN(C(=S)NC1CC2CCC1C2)c1ccccc1 (stereo not given)	i	1.2
COc1ccc2[nH]cc(CCn3ccc(O)c(C/C=C/c4ccccc4)c3=O)c2c1	i	0.15
O=S(=O)(Nc1cccc2ccccc12)c1cccs1	i	0.66
Cc1nn(-c2cccc(C(F)(F)F)c2)c(=O)c2ccccc12	i	0.28
SMILES	KCNQ2 block	KCNQ2 block baseline
CCc1nc(Nc2ccccc2OC)c2oc3ccccc3c2n1	i	-2.4
COc1ccc(C)cc1N(CC(=O)Nc1cccnc1)S(=O)(=O)c1ccc(C)cc1	i	-1.3
O=C(N/N=C/c1cccc2ccccc12)c1cc(C2CC2)[nH]n1	i	0.85
CCCCCC1CC(CC(=O)O)C(=O)O1 (stereo not given)	i	0.96
Cc1nc(-c2ccc(O)c(O)c2)cs1	i	0.64
CN(C)CCOC(=O)CC12CC3CC(C1)CC(CC(=O)OCCN(C)C)(C3)C2	i	-0.76
COC(=O)c1cc(C(=O)OCC(=O)NC2CCS(=O)(=O)C2)cc([N+](=O)[O-])c1 (stereo not given)	i	0.57
O=C(O)c1ccc(Nc2nc(-c3cccnc3)cs2)cc1O	i	-1.5
Cc1c(C(=O)OCC(=O)N2CC(C)OC(C)C2)oc2ccc(Br)cc12 (stereo not given)	i	-0.01
O=C(CSc1nc2c(cnn2-c2ccccc2)c(=O)[nH]1)NC1CCS(=O)(=O)C1 (stereo not given)	i	2.6
N#CC1=C(N)N(c2ccccc2)C2=C(C(=O)CCC2)C1c1ccsc1 (stereo not given)	i	0.03
CN(C(=S)Nc1cccnc1)c1ccc(O)cc1	i	2.3
N#C/C(=C\c1ccc(-c2ccccc2C(=O)O)o1)c1nc2ccccc2[nH]1	i	0.88
CC(C)(C)C1CCC(OC(=O)C[N+]2(C)CCCCC2)CC1 (stereo not given)	i	-0.04
CCOc1ccc(Br)cc1S(=O)(=O)Nc1ccc(C(=O)OCC(=O)Nc2ccc(C#N)cc2)cc1	i	1.4
COc1cc(NC(=O)c2cnn3c(C(F)F)cc(C4CC4)nc23)c(OC)cc1Cl	i	-0.06
CCC(NS(=O)(=O)c1ccc(OC)cc1)C(=O)NCCc1ccccc1 (stereo not given)	i	0.19
NC(=O)C(CCC(=O)c1ccc(Br)cc1)S(=O)(=O)c1ccccc1 (stereo not given)	i	-0.7
CC(=O)Nc1ccc2nc(CN3CCN(CC(C)C)C(CCO)C3)ccc2c1 (stereo not given)	i	-2.2
Cc1cccc(NS(=O)(=O)c2cc(C(=O)OCC(=O)Nc3cc(C)on3)ccc2C)c1	i	0.41
COc1ccc(-c2c([C@H]3[C@@H]4C=CCC[C@@]4(C)C(=O)N3Cc3ccccc3)ccc3ccccc23)cc1OC	i	1.9
c1ccc(CNc2nnnn2-c2ccccc2)cc1	i	-1.1
CCn1ccc(-c2ccccc2)c(C#N)c1=O	i	-0.04
COc1cc2c(cc1OC)C(c1ccc(Br)cc1)CC(=O)N2 (stereo not given)	i	1.1
CCOC(=O)N1CCN(S(=O)(=O)N2CCCC(C(=O)NCCc3ccc(OC)c(OC)c3)C2)CC1 (stereo not given)	i	-1.1
SMILES	KCNQ2 block	KCNQ2 block baseline
COc1ccc(C2NC(=O)c3sc4nc(C)c(C(C)=O)c(-c5ccc(Cl)cc5)c4c3N2)cc1 (stereo not given)	i	-1.5
O=C(Nc1ccc(F)cc1)c1cnc(-c2ccccc2)nc1-c1ccccc1	i	-0.99
COc1ccc(C2=CC3=C(Br)C(=O)C(C)(OC(=O)C4CCCC4)C(=O)C3=CO2)cc1 (stereo not given)	i	0.47
CCN1C=C(Cc2ccc(OC)cc2)C2=C(C1)C(c1ccc(OC)cc1)C(C#N)=C(N)O2 (stereo not given)	i	1.8
O=C(CCSc1ccc(Cl)cc1)c1cccs1	i	-0.63
O=S(=O)(CCc1nc2ccccc2[nH]1)c1ccc(Cl)cc1	i	-0.27
CC1CCCC(NC(=O)CCC(=O)c2ccc(F)cc2)C1C (stereo not given)	i	-0.17
O=[N+]([O-])c1nn(-c2ccc3c(c2)OCCO3)n(O)c1=NCc1ccc(F)cc1Cl	i	0.27
CC1(C)CC(=O)C(N=Nc2ccc(Br)cc2)=C(O)C1	i	0.01
O=C1CC(=C2c3ccccc3-c3ccccc32)C(=O)N1CCN1CCN(c2ccccc2)CC1	i	1.5
CCOC(=O)N1CCN(C(=O)C2CCN(S(=O)(=O)N3CCC4(CC3)OCCO4)CC2)CC1	i	-0.29
CCCCC(CC(C)O)c1n[nH]c(=S)n1-c1ccccc1 (stereo not given)	i	0.16
COC(=O)c1ccc(Oc2c(F)c(F)nc(N3CCOCC3)c2F)cc1	i	1.2
COCCCNC(=O)C1CCN(C(=O)c2cc3sccc3n2Cc2ccc(F)cc2)CC1	i	-1.9
CCCCN1C(=O)C(=O)N(CC(=O)c2ccc[nH]2)C1=O	i	0.33
Cc1ccc2[nH]c(=O)c(C(c3nnnn3CC3CCCO3)N3CCOCC3)cc2c1 (stereo not given)	i	0.05
O=C(CCNC(=O)c1ccccc1Cl)NNC(=O)c1ccccc1O	i	-0.46

Molecules above that contain an NH in an aromatic ring:
SMILES	KCNQ2 block	KCNQ2 block baseline
CCN(CC)CCNC(=O)c1[nH]c2ccc(OCc3ccccc3)cc2c1C	i	0.25
O=C(c1ccc(Cn2c(=S)[nH]c3cc4c(cc3c2=O)OCO4)cc1)N1CCN(c2ncccn2)CC1	i	0.09
COc1ccc2c([N+](=O)[O-])c(N3CCCC3)[nH]c2c1	i	1.1
c1ccc(-c2nnc(CSc3nc4ccccc4[nH]3)o2)cc1	i	-2.1
O=c1[nH]c(SCc2ccc(Cl)cc2)nc2ccsc12	i	0.42
COc1ccc2[nH]cc(CCn3ccc(O)c(C/C=C/c4ccccc4)c3=O)c2c1	i	0.15
O=C(N/N=C/c1cccc2ccccc12)c1cc(C2CC2)[nH]n1	i	0.85
O=C(CSc1nc2c(cnn2-c2ccccc2)c(=O)[nH]1)NC1CCS(=O)(=O)C1 (stereo not given)	i	2.6
N#C/C(=C\c1ccc(-c2ccccc2C(=O)O)o1)c1nc2ccccc2[nH]1	i	0.88
O=S(=O)(CCc1nc2ccccc2[nH]1)c1ccc(Cl)cc1	i	-0.27
CCCCC(CC(C)O)c1n[nH]c(=S)n1-c1ccccc1 (stereo not given)	i	0.16
CCCCN1C(=O)C(=O)N(CC(=O)c2ccc[nH]2)C1=O	i	0.33
Cc1ccc2[nH]c(=O)c(C(c3nnnn3CC3CCCO3)N3CCOCC3)cc2c1 (stereo not given)	i	0.05

Only part of the results is shown; rates above refer to the full screens.
